KCNQ2 pot: KCNQ2 (rat) channel potentiation | O88943 | CHO-K1 KCNQ2, FluxOR thallium flux fluorescence; hits give high values | B-score at 10 µM | 310,000 tested, 0.54% active | AID 2239;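 active means fluorescence ratio B-score at least 3 SD of library B-scores, with initial fluorescence B-score within 3 SD, cut at about 5.3 in these data; same plate scores as AID 2156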;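 further: B-score of peak minus minimum over baseline fluorescence ratio after K+ and Tl+ stimulus; positive B-score means potentiation of KCNQ2 with more thallium influx and brighter signal; only the inactives scoring about 0 or higher are listed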
Target sequence (O88943 whole entry, looked up): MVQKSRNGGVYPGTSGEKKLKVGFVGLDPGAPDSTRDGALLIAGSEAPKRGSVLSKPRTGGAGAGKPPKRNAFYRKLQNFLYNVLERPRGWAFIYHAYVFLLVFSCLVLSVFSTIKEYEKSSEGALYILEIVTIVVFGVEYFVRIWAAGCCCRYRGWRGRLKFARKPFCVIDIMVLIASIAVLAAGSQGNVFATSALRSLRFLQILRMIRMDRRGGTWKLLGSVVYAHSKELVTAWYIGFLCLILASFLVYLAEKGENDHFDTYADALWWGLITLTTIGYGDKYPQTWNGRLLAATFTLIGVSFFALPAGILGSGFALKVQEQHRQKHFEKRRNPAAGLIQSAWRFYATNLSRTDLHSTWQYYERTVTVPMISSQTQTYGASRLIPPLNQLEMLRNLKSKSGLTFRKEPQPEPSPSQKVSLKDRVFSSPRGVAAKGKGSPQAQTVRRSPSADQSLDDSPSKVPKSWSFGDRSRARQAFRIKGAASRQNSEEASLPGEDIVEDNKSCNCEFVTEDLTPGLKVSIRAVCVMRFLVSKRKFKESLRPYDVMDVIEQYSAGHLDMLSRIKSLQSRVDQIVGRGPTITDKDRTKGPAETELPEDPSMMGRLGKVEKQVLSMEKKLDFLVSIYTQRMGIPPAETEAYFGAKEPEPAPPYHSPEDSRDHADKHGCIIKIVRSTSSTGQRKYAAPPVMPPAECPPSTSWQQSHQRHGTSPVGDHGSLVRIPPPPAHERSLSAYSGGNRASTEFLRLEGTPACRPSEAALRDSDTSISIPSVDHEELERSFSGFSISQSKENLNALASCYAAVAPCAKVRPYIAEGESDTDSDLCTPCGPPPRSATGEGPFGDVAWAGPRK
KCNQ2 pot baseline: second read-out of KCNQ2 pot, no call of its own (marks repeat the call); B-score; compound at 10 µM; measured here: initial fluorescence intensity artifact check;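 brightness before thallium and not channel activity; 0 = typical well and far values either way flag optical interference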
Starred values were filed as active, the others as inactive; . = no result given.

SMILES | KCNQ2 pot | KCNQ2 pot baseline
Cc1ccc(C(=O)N/C(=C\c2ccco2)C(=O)NCC2CCCO2)cc1C (centres undefined) | 0.04 | -2.9
CCC(c1nnnn1C(C)(C)CC)N(CCCN1CCOCC1)Cc1cc2cccc(C)c2[nH]c1=O (centres undefined) | 0.07 | 0.86
Nc1c(-c2ccc(F)cc2)cnn1C1CCS(=O)(=O)C1 (centres undefined) | 1.5 | 0.01
CC1(C)OC(=O)N(CC(=O)Nc2ccccc2)C1(C)O (centres undefined) | 1.5 | -0.67
O=C(CC1C(=O)NCCN1Cc1c(F)cccc1Cl)NC1CCCCCC1 (centres undefined) | 1.1 | -1.5
O=C(COc1ccc(F)cc1)N(Cc1ccco1)C1CCS(=O)(=O)C1 (centres undefined) | 0.12 | 0.9
CCNc1nc(C)cc(COC)c1C#N | 2.3 | 0.02
O=C(O)CCCC(=O)Nc1ccc(Oc2cccc(C(F)(F)F)c2)nc1 | 1.8 | 0.24
O=C(CN1CCCCC1)Nc1ccc(NC(=O)c2ccccc2Cl)cc1Cl | 0.93 | -2.2
O=C(Cn1nc(-c2ccc(Cl)cc2)ccc1=O)NCC1CCCO1 (centres undefined) | 1.4 | 3.1
CCN(Cc1ccccc1)S(=O)(=O)c1ccc(C(=O)Nc2nnc(C3CC3)o2)cc1 | 2.3 | -0.88
O=C(O)c1cc(NC(=O)c2ccc(Cl)c([N+](=O)[O-])c2)cc(C(=O)O)c1 | 0.26 | 0.58
COc1cc(C(=O)NCCCCCCNC(=O)c2cc(OC)c(OC)c(OC)c2)cc(OC)c1OC | 1.2 | 0.44
Cc1cc(C(=O)NCCCN2CCCC2=O)cs1 | 0.16 | 0
COc1ccc(OC)c(C2C(C(=O)c3ccco3)=C(O)C(=O)N2Cc2cccnc2)c1 (centres undefined) | 1.2 | 0.07
CCSc1cnc(-c2ccccc2)n1CC | 0.28 | -0.67
CCc1ccc(-c2nc(NC(=O)c3ccc(OCC(=O)Nc4ccc(F)cc4)c(OC)c3)sc2C)cc1 | 0.71 | -2.2
O=C(Cn1cc(SCc2cccc(Cl)c2)c2ccccc21)N1CCOCC1 | 0.73 | 1.1
CCC(C)NCc1ccc(C(=O)OC)o1 (centres undefined) | 0.16 | -2.1
O=C(C[n+]1ccc(C(=O)NCCCO)cc1)c1cccc(Br)c1 | 0.38 | -0.79

14 of these compounds, reformatted:
Value order: KCNQ2 pot	KCNQ2 pot baseline
- CCC(c1nnnn1C(C)(C)CC)N(CCCN1CCOCC1)Cc1cc2cccc(C)c2[nH]c1=O (centres undefined)
  0.07	0.86
- Nc1c(-c2ccc(F)cc2)cnn1C1CCS(=O)(=O)C1 (centres undefined)
  1.5	0.01
- CC1(C)OC(=O)N(CC(=O)Nc2ccccc2)C1(C)O (centres undefined)
  1.5	-0.67
- O=C(CC1C(=O)NCCN1Cc1c(F)cccc1Cl)NC1CCCCCC1 (centres undefined)
  1.1	-1.5
- O=C(COc1ccc(F)cc1)N(Cc1ccco1)C1CCS(=O)(=O)C1 (centres undefined)
  0.12	0.9
- CCNc1nc(C)cc(COC)c1C#N
  2.3	0.02
- O=C(O)CCCC(=O)Nc1ccc(Oc2cccc(C(F)(F)F)c2)nc1
  1.8	0.24
- O=C(CN1CCCCC1)Nc1ccc(NC(=O)c2ccccc2Cl)cc1Cl
  0.93	-2.2
- O=C(Cn1nc(-c2ccc(Cl)cc2)ccc1=O)NCC1CCCO1 (centres undefined)
  1.4	3.1
- CCN(Cc1ccccc1)S(=O)(=O)c1ccc(C(=O)Nc2nnc(C3CC3)o2)cc1
  2.3	-0.88
- O=C(O)c1cc(NC(=O)c2ccc(Cl)c([N+](=O)[O-])c2)cc(C(=O)O)c1
  0.26	0.58
- COc1cc(C(=O)NCCCCCCNC(=O)c2cc(OC)c(OC)c(OC)c2)cc(OC)c1OC
  1.2	0.44
- Cc1cc(C(=O)NCCCN2CCCC2=O)cs1
  0.16	0
- COc1ccc(OC)c(C2C(C(=O)c3ccco3)=C(O)C(=O)N2Cc2cccnc2)c1 (centres undefined)
  1.2	0.07

Next section.
SMILES | KCNQ2 pot | KCNQ2 pot baseline
O=C(CCC(=O)N(CC(=O)NC1CCCC1)c1ccc(F)cc1)Nc1nccs1 | 0.34 | 1.3
O=C(COc1ccccc1)N1CCN(S(=O)(=O)c2cccs2)CC1 | 2.6 | 0.15
NC(=O)CC(NC(=O)Cc1ccc(Cl)cc1)c1ccc(NCCN2CCOCC2)c([N+](=O)[O-])c1 (centres undefined) | 1.8 | 0.97
COc1cc2[nH]c(=O)n(CCCCCC(=O)NCCCN3CCCC3=O)c(=O)c2cc1OC | 0.91 | 1.9
Cc1ccc(NC(=S)NC(NC(=O)C(C)(C)C)C(Cl)(Cl)Cl)c(C)c1 (centres undefined) | 1.7 | -1.3
COC(=O)c1c(NC(=O)CN2CCC(C)CC2)c2c(C)cccc2n1C | 0.17 | -0.11
Cc1cc(C)c2nc(N3CCCC(C(=O)NC4CCCC4)C3)sc2c1 (centres undefined) | 1.7 | 0.48
CCO[C@H]1OC(C(=O)O)=C[C@@H](C2CC2)[C@@H]1CCCO | 0.06 | 1.1
O=C(c1ccc(=O)[nH]c1)N1CCCc2ccccc21 | 1.2 | -0.43
Nc1cccc(S(=O)(=O)NC2=NCCC2)c1 | 1.2 | -0.42
O=C(O)c1ccc(COc2ccccc2C=C2C(=O)c3ccccc3C2=O)cc1 | 0.55 | -0.1
CCC1CCCCN1C(=O)COC(=O)c1cc(Br)ccc1Cl (centres undefined) | 0.44 | 0.08
COc1cc(C)c(C(=O)Oc2cc(C)c(C(=O)O)c(O)c2C)c(OC)c1C | 1.6 | 0.03
Cc1ccc(C(=O)CSc2nc(C)cc(SCc3nnc(-c4ccccc4)o3)n2)cc1 | 0.89 | -0.44
COc1ccc2[nH]c(=O)c(C3c4cc(OC)c(OC)cc4CCN3C(=O)c3ccco3)cc2c1 (centres undefined) | 0.18 | -0.86
CC(C)(C#N)N([O-])C=C[N+](=O)C(C)(C)C#N | 0.29 | -1
O=C(NC(=S)Nc1ccc(Cl)cn1)c1cc([N+](=O)[O-])ccc1N1CCOCC1 | 0.3 | -0.03
COc1cccc(CN2CCN(Cc3nc4c(s3)CCCC4)CC2CCO)c1 (centres undefined) | 0.8 | -1.9
CCC(C)(C)NC(=O)Cc1ccc(C)cc1 | 0.93 | -0.51
Cc1sc2nc3ccc(N4CCCC4)nn3c(=O)c2c1C | 1.2 | 0.14
CCOC(=O)c1nn(-c2ccc(F)cc2)c2nc(Nc3ccccc3)cc(=O)n12 | 2.3 | -1.2
CCOC(=O)C1=C(N)Oc2cc(O)ccc2C1c1ccccc1 (centres undefined) | 1.5 | 1.2
CC(C)CCNC(=O)C1CC(c2cccc([N+](=O)[O-])c2)=NO1 (centres undefined) | 0.35 | 0.29
CCOC(=O)CC(NC(=O)CCc1c(C)nc2nc(C)nn2c1C)c1ccc(OC(C)C)cc1 (centres undefined) | 0.81 | 0.87
O=C(Cc1ccccc1)N1CCCC(c2nc(-c3ccc(S(=O)(=O)N4CCCC4)cc3)no2)C1 (centres undefined) | 2.9 | -1.7
COc1ccc(-c2[nH]ncc2CNC(C)c2cn(C)nc2C)c(F)c1 (centres undefined) | 0.7 | 0.72
COC(CN(C)C(=O)c1ccc2c(c1)NC(=O)c1ccccc1S2)OC | 0.34 | -0.52
CCOc1ccc(NC(=O)c2ccccc2NS(C)(=O)=O)cc1 | 0.72 | -1.9
CC1=CCC2C(=O)N(C(C)c3ccccc3)C(=O)C2C1 (centres undefined) | 0.48 | 0.56
Cc1ccc(OCCNC(=O)/C=C/c2ccccc2)cc1 | 0.72 | 2.1
Cc1ccccc1N=C1NC(=O)C(CO)(CO)S1 | 0.31 | 0.67
CCOc1cc(-c2nc(-c3ccc(OC)cc3)no2)cc(OCC)c1OCC | 0.18 | -1.4
CN1CCN(C(=S)NC(CC(=O)c2ccccc2)c2ccccc2)CC1 (centres undefined) | 1.8 | -1
Cc1cc(C)n(C(=O)c2cc([N+](=O)[O-])cc([N+](=O)[O-])c2)n1 | 0.03 | -2
CCOC(=O)Cc1csc(SCn2nnc3ccccc3c2=O)n1 | 0.76 | -2.7
C=CCN(c1ccc(Cl)cc1)S(=O)(=O)c1cccc(C(=O)O)c1 | 1.8 | -0.2
CCN(C(=O)CN1CCN(c2cccc(Cl)c2)CC1)c1c(N)n(Cc2ccccc2)c(=O)[nH]c1=O | 0.33 | 0.04
Cc1[nH]c(C)c(S(=O)(=O)NCCc2ccccc2)c1C(=O)N1CCCC1 | 1.2 | 0.82
COc1ccc(N2C(=O)CCC(C(=O)O)C2c2ccc(F)cc2)cc1 (centres undefined) | 0.88 | 1.5
CN(C)/N=C/c1c(O)ccc2ccccc12 | 1.3 | -0.89
Cc1csc(NC(=O)CSc2nsc(SCC(=O)Nc3nc(C)cs3)c2C#N)n1 | 1.1 | -0.42
COc1cccc(CC(=O)NCCCSc2ccccc2)c1 | 0.74 | 2.1
C/C(CC(=O)Nc1cccc(F)c1)=N\NC(=O)c1ccncc1 | 0.51 | -1.4
Cc1nc2ccc(NC(=O)c3ccc(=O)[nH]c3)cc2s1 | 1 | -0.19
Cc1ccc(SCC(=O)Nc2ccc(-c3nnc(-c4ccco4)o3)cc2)cc1 | 1.4 | 0.5
COc1cc(NC(=O)CCCOc2ccc(Cl)cc2Cl)c(C(=O)O)cc1OC | 1.6 | 2.6
COc1cccc(C(=O)NCC(=O)OCC(=O)c2ccccc2)c1 | 0.16 | -0.31
CC1CN(C2CC(C)(C)NC(C)(C)C2)CCC1=O (centres undefined) | 0.53 | 0.18
CC1(C)C(Cl)C(=O)C(C(=O)c2ccccc2)C(=O)C1Cl (centres undefined) | 1.2 | -0.94
CC(C)=CC1C=C(C)C(C)C2C(=O)NNC(=O)C12 (centres undefined) | 0.45 | 0.27
O=C1Nc2ccc([N+](=O)[O-])cc2OC1CCN1CCN(c2ccccc2)CC1 (centres undefined) | 0.84 | -0.77
CCOC(=O)c1nc(NCCc2ccccc2)sc1C | 0.54 | -0.63
CCn1c(=O)c(C(=O)NCc2cccnc2)c(O)c2ccccc21 | 1.1 | -2.3
CCCCCc1ccc(-c2ccc(/C=C/C(N)=O)cc2)nc1 | 1.1 | -0.67
COc1ccc(S(=O)(=O)c2nnn(-c3cccc(OC)c3)c2N)cc1 | 2.1 | -0.04
O=C(Nc1ccc(-c2nc3ccc(NC(=O)c4cccs4)cc3[nH]2)cc1)c1cccs1 | 3.1 | 0.7
COc1ccc(C(C#N)N2N=C(C)CC2c2ccccc2)cc1OC (centres undefined) | 1.1 | -1.6
Cc1ccnc(NC(=O)CC(c2ccccc2)c2ccccc2)n1 | 1.2 | 0.2
CCOC(=O)N1CCN(C(=O)CSc2ccc(C(=O)OC)cc2[N+](=O)[O-])CC1 | 0.45 | 0.59
O=C(c1ccco1)N1CCN(C(=O)c2cc(-c3ccccn3)nc3ccccc23)CC1 | 1.5 | -1.5

Remaining list, next part
SMILES | KCNQ2 pot | KCNQ2 pot baseline
CCO[C@@H]1OC(C(=O)O)=C[C@H](c2ccc(Br)cc2)[C@H]1CCCO | 0.68 | -0.04
CCCS(=O)(=O)N1CCN(c2ccccn2)CC1 | 0.49 | 0.06
OCCC1CN(C2CCN(c3ccccc3F)CC2)CCN1Cc1ccccc1 (centres undefined) | 0.75 | -0.3
O=C(Nc1ccc(-c2nc3ccccc3o2)cc1)C1CCCO1 (centres undefined) | 0.4 | 1.5
Cc1n[nH]c(C)c1S(=O)(=O)N1CCC(C(=O)Nc2cccc(F)c2)CC1 | 0.01 | -1.3
CCOC(=O)c1ccc(CSc2n[nH]c(C)n2)o1 | 0.25 | -0.49
CCCCNC(=O)C(=O)NCCCn1ccnc1 | 0.35 | -0.77
CCSc1nc2ccccc2[nH]1 | 1 | .
O=C(O)C1C2C=CC(O2)C1C(=O)NCCC1=CCCCC1 (centres undefined) | 0.77 | -0.37
O=C(CCC1CCN(C(=O)c2cccc(Cl)c2F)CC1)Nc1ccccc1 | 1.7 | -2.4
CCCCOC(=O)C1[C@H]2C(=O)N(CCc3ccccc3)C[C@]23C=C[C@H]1O3 (some centres undefined) | 0.62 | -1.9
O=C(NCc1ccc2c(c1)OCO2)C(=O)Nc1ccccc1 | 0.59 | 1.6
CCOC(=O)C1(Cc2cccc(OC)c2)CCCN(C(=O)CSC)C1 (centres undefined) | 0.22 | 0
Cc1cc(C)nc(NS(=O)(=O)c2ccc(-n3cccc3)cc2)n1 | 1 | -0.54
Cc1ccc(O)c(C(=O)c2cnc3c(c2)CN(CCC(C)C)C(=O)N3)c1 | 0.05 | -3.2
Cc1ccccc1Nc1c(N)c(=O)oc2ccccc12 | 1.4 | -1.6
O=C(Nc1nnc(-c2cc(Cl)ccc2Cl)o1)C1=COCCO1 | 4.2 | 0.47
COc1ccc(C2CC(Cn3cc(C#N)c(=O)n(C)c3=O)ON2C)cc1 (centres undefined) | 1.1 | 0.97
Cc1ccc2occ(C(=O)c3ccco3)c(=O)c2c1 | 1.6 | -0.39
CCOc1ccc(C(=O)NC2CCN(C(=O)Nc3ccccc3OC)CC2)cc1 | 0.15 | 0.47
COc1ccccc1N1C(=O)C2C3C=CC(C3)C2(C)C1=O (centres undefined) | 0.89 | 0.58
O=C(Nc1ccncc1)c1ccc(S(=O)(=O)Nc2ccccc2)cc1 | 0.02 | -0.25
O=C(CN1CCCCC1)Nc1nnc(-c2ccccc2)s1 | 0.87 | -2.1
COc1cc(OC)cc(C(=O)NCC(=O)OCC(=O)Nc2ccc3c(c2)OCO3)c1 | 2.6 | 0.04
O=C(NC(=S)Nc1cccc2c(O)cccc12)c1ccco1 | 0.76 | -2.6

Some of the compounds tested; rates above refer to the full screens.
